# Compound activity: PubChem, National Center for Advancing Translational Sciences (NCATS)
# StopGo FLuc = lowers the firefly signal of an FMDV 2A StopGo reporter; HEK cells with a luciferase reporter of 2A StopGo recoding; Potency, µM (highest dose often 57.5 µM), for inactives: at the highest dose signal change, negative = less light; 120,000 compounds, 0.23% hits; AID 1745856; active = well fitted falling curve with a large enough effect; inconclusive = small, poorly fitted or top-dose-only effect; inactive = no such curve, though single readings can be large or run the other way; also: nearly all actives have a fitted effect of over 60% in size; overnight with compound
# StopGo RLuc = FMDV 2A StopGo reporter, Renilla signal; 120,000 compounds, 0.32% hits; Potency, µM (highest dose often 57.5 µM), without a hit: at the highest dose signal change, negative = less light; AID 1745857; HEK cells with a luciferase reporter of 2A StopGo recoding; active means well fitted falling curve with a large enough effect; inconclusive means small, poorly fitted or top-dose-only effect; inactive means no such curve, though single readings can be large or run the other way; also: nearly all actives have a fitted effect of over 55% in size; overnight with compound
# * = called active by the depositor; ? = inconclusive; & = joins results of further samples; [ ] = dose if it differs, or a comment. % is scaled to controls: 0 for no effect and ±100 for the full control effect; potency is read from the fitted curve at half-maximal effect.
# Values run as follows: StopGo FLuc | StopGo RLuc
> O=S(=O)(NCCS(=O)(=O)N1CCN(c2ccccc2)CC1)c1ccccc1
  -11% | 34%[activator]
> NC12CC3CC(CC(C3)C1)C2
  -3% | 2%&-5%
> C[C@H](O)C(=O)Nc1c(I)c(C(=O)NC(CO)CO)c(I)c(C(=O)NC(CO)CO)c1I
  -18% | -10%
> CCc1nn(CCCC(=O)N2CCN(c3cccc(OC)c3)CC2)c(=O)c2cc3occc3n12
  22% | -19%
> CCOC(=O)c1sc(NC(=O)C2CCCO2)c(C(=O)OCC)c1C (stereo not given)
  5% | 3%
> CN(C)S(=O)(=O)N1CCC(N2CCN(Cc3ccc(F)cc3)C(=O)C2=O)CC1
  -17% | -11%
> CN1CCN(CCNC(=O)c2ccc3nc(-c4ccc(F)cc4)c(-c4ccc(F)cc4)nc3c2)CC1
  -11% | -23%
> O=C(CCc1nc(-c2cccnc2)no1)NCc1cccnc1-n1cncn1
  2% | -5%
> COC(=O)CC(=O)CSc1nc2cc(C(=O)NC(C)C)ccc2c(=O)n1CCc1ccccc1
  -11% | -13%
> Cc1ccc(Cn2c(CNS(=O)(=O)c3cccc([N+](=O)[O-])c3)nc3cccnc32)cc1
  0% | -12%
> O=C(COC(=O)COc1ccc(C2SCCCS2)cc1)Nc1ccc(F)c(F)c1
  2% | -12%
> N#Cc1ccc(NC(=O)Cn2nc(C(=O)O)c3ccccc3c2=O)cc1Cl
  -2% | -2%
> O=C(COc1ccc([N+](=O)[O-])cc1)Nc1ccc2oc(-c3ccc4ccccc4c3)nc2c1
  137%[activator] | 20%
> CC1(C)C(C=C(Cl)Cl)C1C(=O)Nc1ccccc1C(=O)O (stereo not given)
  15% | -14%
> CNS(=O)(=O)c1cn(CC(=O)N2CCN(c3ccccc3OC)CC2)cc1S(=O)(=O)NC
  16% | 17%
> CCNC(=O)c1cc(OC)cc(OC)c1
  9% | 4%
> Cn1nc(C(=O)Nc2ccc(Br)cc2F)c2c1-c1ccsc1CC2
  20% | 4%
> COc1ccccc1N1CCN(C(=O)C2CCN(S(=O)(=O)c3c(C)noc3/C=C/c3ccc(C)cc3)CC2)CC1
  -13% | -14%
> Cc1ccc(-n2cc(-c3ccccc3)c3c(N4CCC(C)CC4)ncnc32)cc1Cl
  -7% | -11%
> CC1CCCN(CCCNC(=O)c2cn(C)c3ccc(S(=O)(=O)N(C)C4CCCCC4)cc3c2=O)C1 (stereo not given)
  -18% | -10%
> CCc1ccccc1NC(=O)C1CCN(c2nn3c(=O)cc(C)nc3s2)CC1
  21% | 7%
> Cc1[nH]c2ccccc2c1CCNC(=S)NC(C)(C)C
  0% | 18%
> CCN(CC)C(=O)c1ccc(NC(=O)CCn2nc(-c3ccc(Cl)cc3)c3ccccc3c2=O)cc1
  ? | ?
> O=C(Nc1cccc(F)c1)c1nc2ccccc2nc1N1CCOCC1
  -7% | 0%
> O=C(O)Cn1cc(C(C(=O)O)N2CCN(C(c3ccccc3)c3ccccc3)CC2)c2ccccc21 (stereo not given)
  -5% | -13%
> Fc1ccc(-c2noc3ncnc(NCC4CCN(Cc5ccc(Cl)cc5)CC4)c23)cc1
  ? | ?
> CCOc1nc2ccccc2nc1N1CCC(C(=O)Nc2ccc(NC(C)=O)cc2)CC1
  -7% | -3%
> Cc1c(-c2ccccc2)c(=O)oc2ccc(OS(C)(=O)=O)cc12
  0% | 18%
> COc1ccccc1OCCn1c(NC(=O)c2ccccc2)nc2ccccc21
  -8% | 5%
> COCc1cc(C)n(CC(=O)Nc2ccc(Cl)cc2Cl)c(=O)c1C#N
  -7% | -4%

# Entries of single compounds, looked up by structure. Screens in order: StopGo FLuc	StopGo RLuc
# Listed for `Cc1ccc(Cn2c(CNS(=O)(=O)c3cccc([N+](=O)[O-])c3)nc3cccnc32)cc1` : 0%	-12%
# Listed for `Cc1ccc(-n2cc(-c3ccccc3)c3c(N4CCC(C)CC4)ncnc32)cc1Cl` : -7%	-11%
# Listed for `CCc1nn(CCCC(=O)N2CCN(c3cccc(OC)c3)CC2)c(=O)c2cc3occc3n12` : 22%	-19%

# Further records:
# Values run as follows: StopGo FLuc | StopGo RLuc
> CC1(C)CC(=O)C2=C(C1)NC(=O)CC2c1ccc(C(C)(C)C)cc1 (stereo not given)
  16% | 26%
> CC(=O)N1CCc2c(sc3c2c(=O)n(-c2ccc(C)cc2)c(=O)n3Cc2c(F)cccc2Cl)C1
  0% | 23%
> Cc1nc2cc(NC(=O)c3cc(F)cc(F)c3)ccc2o1
  218%[activator] | 17%
> c1ccc(OCCn2c(CN3CCCCCC3)nc3ccccc32)cc1
  -70% | ?
> COc1ccc(CNC(=O)CCc2c(C)nc3c(c2C)c(=O)n(C)c(=O)n3C)cc1
  -19% | -17%
> CNC(=O)c1c(I)c(NC(C)=O)c(I)c(C(=O)O)c1I
  -4%[11.5 µM] | -9%
> Cc1nc(NC2CCCC2)sc1C(=O)Nc1ccccc1
  251%[activator] | 17%
> NC(=O)c1ccsc1NS(=O)(=O)c1ccc([N+](=O)[O-])cc1
  4% | 6%
> Nc1ccc(C(=O)Oc2ccccc2)cc1
  187%[activator] | 8%
> Cc1ccc2cc3c(N)nn(C(=O)c4cccc(F)c4)c3nc2c1
  15% | -7%
> Cc1ccc(/C=C/c2onc(C)c2S(=O)(=O)N2CCC(C(=O)N(CCC(C)C)Cc3ccco3)CC2)cc1
  -12% | 4%
> CCS(=O)(=O)N(Cc1c(F)cccc1Cl)c1c(C)n(C)n(-c2ccccc2)c1=O
  -5% | -7%
> O=C(Cn1ncc2c3ccccc3n(Cc3ccc(Cl)cc3)c2c1=O)N1CCCCCC1
  -1% | -7%
> CCOC(=O)c1cccc(NC(=O)c2cc3cc4cc(OC)ccc4nc3s2)c1
  -25% | -16%
> CCOCCOc1nc2c(c(=O)n(C)c(=O)n2C)n1Cc1ccccc1
  ? | ?
> CN1CCC[C@@H]1Cc1c[nH]c2ccc(CCS(=O)(=O)c3ccccc3)cc12
  -7%[11.5 µM] | 2%
> CC1(C)CC(=O)C2=C(C1)NC(Nc1nc3ccccc3o1)=NC2c1ccc(F)cc1 (stereo not given)
  -2% | -3%
> CC(=O)c1ccc(N2CCN(S(=O)(=O)c3ccc(-c4cnc(C5CC5)o4)cc3)CC2)cc1
  -20% | -21%
> CCc1[nH]c(C(=O)OC(C)C(=O)NC2CCCC2)c(C)c1C(=O)OC (stereo not given)
  6% | 4%
> CC(C)c1ccc(NC(=O)CCS(=O)(=O)c2ccc(Br)s2)cc1
  ? | 33%[activator]
> CN(C(=O)CSc1nnc(-c2ccccc2F)o1)C1CCCCC1
  38%[activator] | -11%
> CCc1nnc(NC(=O)c2cc(-c3ccc(C)cc3)nc3ccccc23)s1
  22% | -5%
> COc1ccc2c(c1)c(=O)c(S(=O)(=O)c1ccccc1)cn2CC(=O)Nc1ccc(C)c(Cl)c1
  -1% | 56%[activator]
> CCCn1nc(C(=O)NCC2CCCCC2)c2ccccc2c1=O
  4% | 20%
> CC(C)(C)C(=O)NCC(O)COc1ccc(C(F)(F)F)cc1 (stereo not given)
  32%[activator] | 5%
> CSc1cccc(NC(=O)c2sccc2C)c1
  115%[activator] | -6%[1.06 µM]
> COc1cc(NC(=O)Cn2c(=O)n(CC(=O)NCCc3ccc(OC)c(OC)c3)c(=O)c3sccc32)cc(OC)c1
  0% | 18%
> COc1ccc(NC(=O)c2c(NC(=O)COc3ccccc3)sc3c2CCC(C)C3)cc1 (stereo not given)
  -9% | -3%
> Cc1ccc(NC(=O)N2CC3CCCN3c3ccccc32)cc1Cl (stereo not given)
  -8% | -18%
> Cc1cccc(N2CCN(C(=O)c3cc4c(=O)n(C)c5ccccc5c4s3)CC2)c1C
  -16% | 15%
> COc1cc(C(=O)Nc2ccc3[nH]c(=O)sc3c2)cc(OC)c1OC
  0% | 27%
> CC(NC(=O)C1CCCc2ccccc21)c1ccc(Br)cc1 (stereo not given)
  -6% | -7%[1.06 µM]
> CCOC(=O)c1c(-c2ccc(C)cc2)csc1NC(=O)c1cc(=O)c2ccc(C)cc2o1
  4% | -12%
> Cc1ccc2nc(-c3ccc(N4CCOCC4)cc3)c(Nc3ccccc3C)n2c1
  47%[activator] | -12%
> O=C(Nc1ccccc1NS(=O)(=O)c1cccs1)c1ccc([N+](=O)[O-])cc1
  -4% | 8%
> Cc1c(C(=O)OCC(=O)NCC2CCCO2)sc2cccc(F)c12 (stereo not given)
  -16% | -14%
> COc1cc(-c2c(C#N)c(N)nc3c2c(=O)nc2sccn23)ccc1OCc1ccccc1C
  10% | 16%
> CCCc1nc2c(-c3ccc(Cl)cc3)c(C)[nH]n2c(=O)c1Cl
  7% | -9%
> Cc1cc(SCC(=O)Nc2nsc(-c3ccc(C(C)(C)C)cc3)n2)nc2ccccc12
  77%[activator] | -2%
> Cc1cc(C)c2nc(N3CCC(C(=O)NCc4ccccc4C)CC3)sc2c1
  1% | -2%
> CNC(=O)c1ccc(NC(=O)c2ccc(C(C)(C)C)cc2)cc1
  61%[activator] | -7%
> CCC1CCC(NC2CCC(CC)CC2)CC1 (stereo not given)
  2% | -18%
> Cc1ccc(-c2cc(NC(=O)C(C)C)c(=O)n(CC(=O)Nc3cccc(C(F)(F)F)c3)n2)cc1
  -21% | -16%
> CCn1c(-c2ccc(O)c(OC)c2)nc2c1c(=O)[nH]c(=O)n2Cc1ccccc1
  33%[activator] | 28%
> COc1ccc(NC(=O)c2cc3c(C)nn(-c4ccccc4)c3s2)c(OC)c1
  0% | 5%
> CCCCCn1c(C(C)NC(=O)c2ccccc2)nc2ccccc21 (stereo not given)
  -12% | -11%
> O=[N+]([O-])C=C(c1ccccc1)c1ccccc1
  -6% | -4%
> COc1ccc(S(=O)(=O)Oc2ccc3c(c2)O/C(=C\c2cccc(OC)c2)C3=O)cc1
  ? | ?
> CC(=O)c1cccc(OC(=O)c2ccc3c(c2)CCCC3)c1
  24% | -2%[1.06 µM]
> CCOc1ccccc1NC(=O)c1cc2c(=O)n(Cc3cccnc3)ccc2nc1C
  -15% | 11%

# (more compounds)
# Values run as follows: StopGo FLuc | StopGo RLuc
> Cc1sc2c(c1C)c(=O)n(CCc1ccccc1)c(=O)n2Cc1ccccc1Cl
  -1% | -8%
> Cc1cc(C)cc(N2CCn3c2nc2c3c(=O)n(Cc3c(F)cccc3Cl)c(=O)n2C)c1
  -3% | -10%
> CCCCN(Cc1ccccc1)C(=O)c1cc2c(=O)n3ccccc3nc2n1C
  22% | 5%
> Cc1c(Cl)cccc1NC(=O)CCn1cnnn1
  -18% | -15%
> Cc1ccc(NC(=O)CCCn2c(=O)c3cccn3c3ccccc32)cc1C
  12% | 0%
> Cc1cccc(NC(=O)NCc2nc(-c3cccc(C)c3)no2)c1
  7% | 36%[activator]
> Cc1c(C)n(Cc2ccccn2)c2ncnc(NCc3ccccn3)c12
  4% | 9%
> CC(=O)c1cccc(NC(=O)Cc2c(C)[nH]n(-c3nc(-c4ccc(Cl)cc4)cs3)c2=O)c1
  13% | -16%
> CCc1ccc2oc(C(=O)Nc3c(C)cccc3C)cc(=O)c2c1
  -6% | -17%
> COc1ncnc(NS(=O)(=O)c2ccc(N)cc2)c1OC
  0% | 16%
> O=C(Nc1ccccc1)Nc1nnc(C2CCCC2)s1
  204%[activator] | -1%
> Cc1cccc(NC(=O)C(=O)NCCc2sc(-c3ccccc3)nc2C)c1C
  51%[activator] | -6%
> CC(C)n1c(SCCCc2ccccc2)nc2c1c(=O)[nH]c(=O)n2C
  12% | 2%
> CCN(CC#N)CC(=O)NC1(C#N)CCCC1
  -4% | -3%
> O=C(Nc1cccc(-c2cn3cccnc3n2)c1)c1cc(Br)ccc1Cl
  11% | 30%[activator]
> CC1CCCCN1C(=O)CN1CCSc2ccccc21 (stereo not given)
  5% | 2%
> Cc1cc(Br)c(NC(=O)C(C)C)cc1C
  1% | -4%
> CCN(C(=O)Cc1nc(-c2cccs2)oc1C)c1ccc(F)cc1
  -3% | 2%
> Cn1c(=O)c2nc(SCC(=O)O)n(CCc3ccccc3)c2n(C)c1=O
  -1% | -12%
> O=C(c1ccco1)n1nc(-c2ccc(Cl)cc2)nc1NCc1ccccc1
  73%[activator] | -6%
> CCNC(=O)COc1ccc(NC(=O)c2ccc3c(c2)NC(=O)CS3)cc1
  16% | -1%
> CC(C)Sc1ncc(Cl)c(C(=O)N(Cc2ccc(F)cc2)C2CCS(=O)(=O)C2)n1 (stereo not given)
  -12% | -10%
> COc1ccc2[nH]c(C)c(CCNCc3ccc(C(F)(F)F)cc3)c2c1
  ? | 4.5µM*
> Cc1ccc(-n2ncc3c(NC4CCCCCC4)ncnc32)cc1C
  96%[activator] | -9%
> COC(=O)CCNC(=O)C(c1ccccc1)c1ccccc1
  0% | -8%
> O=C1CSC2(C(=O)N(Cc3cccc(C(F)(F)F)c3)c3ccccc32)N1c1ccc(F)c(F)c1 (stereo not given)
  ? | ?
> COc1ccc(-c2nc3sc(CCNS(=O)(=O)c4c(C)cc(C)cc4C)c(C)n3n2)cc1
  ? | 111%[activator]
> CC(C)(C)C(=O)COC(=O)c1ccccc1SCC1CCCO1 (stereo not given)
  2% | -15%[1.06 µM]
> CCOC(=O)c1cnc2c(Cl)cccc2c1NCCN1CCOCC1
  1% | -4%
> COc1ccc2c(c1)c(C(=O)OCC(=O)N(C)C)c(C)n2C1CC1
  26% | 12%
> Cc1nn(CC(=O)Nc2ccc(I)cc2)c(=O)c2ccccc12
  9% | -3%
> O=C(Cc1noc(C(=O)NCc2ccccn2)n1)Nc1cccc2ncccc12
  1% | -10%
> Cc1n[nH]c(C)c1CCc1nc2c3ccccc3nc(SCC(=O)Nc3ccc(F)cc3)n2n1
  4% | 39%[activator]
> N#Cc1ccc(CCC(=O)Nc2ccc3ccccc3n2)cc1
  -15% | ?
> COc1cccc(CNC(=O)CN2C(=O)COc3ccc(S(=O)(=O)N4CCCCCC4)cc32)c1
  -12% | 0%

# Not all compounds are listed; count on the stated rates, not on these rows.
